From PubChem BioAssay
A1 inh: caspase 3/7 activation in MEF A1-2A-BIM cells, primary screen, A1 inhibitor project, cell-based, luminescence, HTS. AID 2462, 2010. hit rate 0.066% among 330,000. caspase activation, % (no concentration beside the values). Caspase-Glo 3/7 luminescence, 3 h; percent of clofoctol response, vehicle zero;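 active = over half of replicate activation scores above 10%, or exactly half above 10 with the replicate mean above 10; inconclusive = replicate mean below 10 yet half the replicates above 10; inactive = over half of replicates below 10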;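 note: wells of about 30 µL received 50 nL stock; many hits fall short of the cut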
Ecoli growth: E. coli growth inhibition, primary screen, OD600; Escherichia coli growth, 23 h; hits give low values; OD600 absorbance (concentration not given with the values); hit rate 0.21% among 330,000; AID 1053175, 2014;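 active = OD600 absorbance below the run mean of sample wells minus 3.6 SD, in any replicate, cut at about 0.56 in these data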;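 note: stock transfer was 300 nL into about 60 µL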
LANA-H2A inh: blockers of LANA interaction with H2A/H2B – biochemical, FP readout, HTS, primary screen | AID 2629, 2010 | inhibition, % (test concentration not listed) | cell-free LANA-H2A/H2B peptide, fluorescence polarization | hit rate 0.6% among 320,000; in the data active = inhibition mostly above about 10%, no sharp cut-off; inactive = mostly below about 6.7%;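 note: stock transfer was 7.5 nL into about 10 µL; 0% = median of vehicle wells and 100% = median of positive control wells; one replicate is shown; the record names a cut of 25% in any replicate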
B2AR ag: beta2AR agonists driving receptor internalization, primary screen, cell-based, FAP fluorogen, flow cytometry; Beta-2 adrenergic receptor (Homo sapiens), P07550; response, % (concentration not given with the values); hit rate 0.43% among 340,000; Am2.2-beta2AR cells; reference of the scale not given here; AID 504454, 2011;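 active = response above a set limit, near 3 SD of response in nonfluorescent compounds, cut at about 42% in these data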;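 note: stock transfer was 100 nL into about 11 µL; a reference agonist was the positive control; negative values mostly stem from fluorescent compounds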
Target sequence (P07550 whole entry, looked up): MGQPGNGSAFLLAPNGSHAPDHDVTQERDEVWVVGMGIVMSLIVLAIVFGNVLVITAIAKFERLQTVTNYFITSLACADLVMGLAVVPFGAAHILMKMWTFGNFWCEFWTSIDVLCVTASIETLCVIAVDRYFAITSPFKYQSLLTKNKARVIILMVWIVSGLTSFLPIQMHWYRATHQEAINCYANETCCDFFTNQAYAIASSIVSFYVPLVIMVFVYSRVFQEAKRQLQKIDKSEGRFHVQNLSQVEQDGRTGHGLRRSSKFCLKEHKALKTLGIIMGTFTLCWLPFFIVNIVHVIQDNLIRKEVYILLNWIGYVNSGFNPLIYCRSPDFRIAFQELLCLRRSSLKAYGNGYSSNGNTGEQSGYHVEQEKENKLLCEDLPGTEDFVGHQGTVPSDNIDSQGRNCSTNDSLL
Vif TR-FRET: inhibitors of Vif binding to APOBEC3G peptide, primary screen, biochemical, TR-FRET, GST-Vif 1-94, biotin-A3G peptide, dose response retest (AID 1117319); Virion infectivity factor (Human immunodeficiency virus type 1 group M subtype B (isolate …; TR-FRET GST-Vif / biotin-A3G peptide binding; higher % means a stronger effect; test concentration not given here; strong numbers were not always called active; one-dose inhibition, %; IC50 in µM for titrated hits; hit rate 0.57% among 260,000;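 active = above the screen mean plus three standard deviations and confirmed in dose response; inconclusive = results disagree or hit not tested in dose response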;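 note: Vif residues 1-94 fused to GST binding biotinylated APOBEC3G peptide 110-148; 0% = full assay without inhibitor and 100% = GST in place of GST-Vif; retest series ran down from 100 µM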
UCH37 inh: inhibitors of human UCH37 deubiquitinase, primary screen, biochemical, Ub-AMC cleavage, fluorescence. purified proteasome/UCH37. inhibition, % (concentration not given with the values). hit rate 0.33% among 330,000. AID 588478, 2011;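 active = mean of two replicates above 20%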;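 note: 0% = compound-free wells with enzyme and 100% = wells lacking proteasome; stock transfer was 100 nL into about 20 µL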
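system = Proteasome-associated human UCH37 deubiquitinase | amount = 0.15 nM proteasome as dispensed | medium = pH 7.4 Tris-HCl (50 mM) with ovalbumin, ATP-MgCl2, DTT | incubation = 30 min preincubation with enzyme, 25 min cleavage at room temperature | detection = AMC fluorescence 355/460 nm | read-out basis = percent inhibition | controls = no-proteasome and no-compound wells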
HNF4A DNA FP: change in binding of human HNF4A to DNA, primary screen, biochemical, fluorescence polarization, FITC-DNA. Hepatocyte nuclear factor 4-alpha (Homo sapiens), P41235. AID 1224865, 2016. activity change, % at 10 µM. hit rate 0.3% among 360,000. 1 h; in the data active = activity change above about 30%, passing the limit was not always enough;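 note: controls were the assay level and a saturating level of protein; the project sought stronger binding though the title names inhibitors; some compounds called inactive have numbers as strong as hits; positive values seem to mean higher polarization but the record does not say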
Target sequence (P41235 whole entry, looked up): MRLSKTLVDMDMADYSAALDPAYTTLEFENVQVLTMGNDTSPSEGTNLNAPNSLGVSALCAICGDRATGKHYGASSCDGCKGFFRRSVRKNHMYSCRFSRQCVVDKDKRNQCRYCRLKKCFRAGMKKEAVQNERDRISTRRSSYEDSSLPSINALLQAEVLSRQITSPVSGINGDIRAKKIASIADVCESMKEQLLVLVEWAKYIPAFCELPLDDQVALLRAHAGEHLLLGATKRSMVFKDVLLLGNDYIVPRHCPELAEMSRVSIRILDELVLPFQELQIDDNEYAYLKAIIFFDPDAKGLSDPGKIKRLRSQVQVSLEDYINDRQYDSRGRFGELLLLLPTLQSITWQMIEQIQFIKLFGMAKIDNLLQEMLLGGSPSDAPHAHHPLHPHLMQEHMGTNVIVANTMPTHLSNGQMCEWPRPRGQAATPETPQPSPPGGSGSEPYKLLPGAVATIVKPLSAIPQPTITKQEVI
Starred values were filed as active, the others as inactive; ? = inconclusive; . = not tested or not shown.

Molecule,A1 inh,Ecoli growth,LANA-H2A inh,B2AR ag,Vif TR-FRET,UCH37 inh,HNF4A DNA FP
COc1cccc(-c2nc(CS(=O)(=O)CC(=O)NCc3ccccc3)c(C)o2)c1,0.2,0.709,2.6,3.2,0.3%,3.7,2.4
CS(=O)(=O)c1ccc(Cl)c(NC(=O)COC(=O)CNC(=O)c2ccccc2)c1,0.2,0.684,4.4,-7.0,5.2%,1.4,-1.9
COC(=O)C1=C(C)N(Cc2ccccc2)C(=NCc2cccc(C(F)(F)F)c2)N[C@H]1c1cccc(C(F)(F)F)c1,0.2,.,-0.3,32.1,.,2.0,3.0
O=C(NCc1ccc2c(c1)OCO2)c1ccc(-c2ccc(Cl)cc2)o1,-1.0,0.724,-1.3,5.8,0.1%,1.5,4.3
Cc1ccc(NS(=O)(=O)c2ccc3c(c2)n(C)c(=O)n3C)cc1,0.1,0.677,0.6,7.2,2.6%,1.8,-2.2
O=C(NC1CCCC1)c1cccc(Oc2ccccc2)c1,0.0,0.644,-0.4,-8.7,-2.5%,0.1,2.3
COc1ccc(C(=O)OCC(=O)NC2CCCC2)c(OC)c1OC,2.4,0.695,-3.9,2.2,-1.7%,5.2,2.6
CC(=O)Nc1cccc(OCCCNC(=O)c2cccc3ccccc23)c1,0.9,0.683,1.3,2.2,.,6.9,2.9
CC1CCN(S(=O)(=O)c2cccc(C(=O)Nc3ccccn3)c2)CC1,0.5,0.663,1.1,-5.0,4.5%,0.0,1.9
Cc1ccc(OCCNC(=O)c2ccco2)cc1C,-0.1,0.759,2.4,4.9,-3.0%,-6.6,-0.8
N#CCCN(C(=O)COC(=O)CCc1c[nH]c2ccccc12)c1ccccc1,0.8,0.643,-0.3,-0.2,2.7%,0.7,5.1
CCOC(=O)c1ccc(N2C(=O)C3C(C2=O)C(C(=O)c2ccc(Cl)cc2)N2CCCC32)cc1 (stereo not drawn),-0.5,0.732,2.9,-25.1,?,2.7,8.1
CCN1C(=O)c2cccc3c(N)ccc1c23,2.9,0.709,1.1,1.1,.,6.3,1.7
C=CCS(=O)(=O)N1CCCC(N2CCN(c3ccccc3OC)CC2)C1 (stereo not drawn),-0.1,0.651,3.9,-3.3,.,2.1,1.1
c1cncc(N=c2scc(-c3cccc4ccccc34)n2CCCn2ccnc2)c1,-0.3,0.706,2.2,10.5,3.1%,8.0,4.2
Cc1cccc(N(C(=O)c2ccco2)C(C(=O)NC2CCCC2)c2ccco2)c1C (stereo not drawn),.,0.694,.,5.4,16.8%,2.8,6.2
Cc1c(C(=O)Nc2ccc(Cc3ccncc3)cc2)cccc1[N+](=O)[O-],-0.3,0.71,1.1,-14.3,-7.1%,1.2,4.3
CCN(CC)S(=O)(=O)c1ccc(N2CCCC2)c(NS(=O)(=O)c2ccc(OC)cc2)c1,-0.6,0.719,0.5,4.4,-2.4%,-1.7,1.4
O=C(COC(=O)Cc1n[nH]c(=O)c2ccccc12)Nc1ccc(Cl)cn1,0.5,0.689,-2.0,-2.0,-0.2%,1.3,1.8
CC(C)(C)NC(=O)CN1CCN(C(=O)CCl)CC1,0.6,0.718,-0.9,-3.4,-2.7%,5.3,1.0

Whole records as entered above. Values in the order: A1 inh | Ecoli growth | LANA-H2A inh | B2AR ag | Vif TR-FRET | UCH37 inh | HNF4A DNA FP
O=C(COC(=O)Cc1n[nH]c(=O)c2ccccc12)Nc1ccc(Cl)cn1 reads 0.5 | 0.689 | -2.0 | -2.0 | -0.2% | 1.3 | 1.8
COc1ccc(C(=O)OCC(=O)NC2CCCC2)c(OC)c1OC reads 2.4 | 0.695 | -3.9 | 2.2 | -1.7% | 5.2 | 2.6

Next section.
Molecule,A1 inh,Ecoli growth,LANA-H2A inh,B2AR ag,Vif TR-FRET,UCH37 inh,HNF4A DNA FP
COc1ccc(C2=NS(=O)(=O)N(C)C(C(=O)NCc3ccccn3)=C2)cc1,-0.1,0.771,-0.6,-2.5,.,9.8,-3.0
C#CCOCCOCCOCCNc1nc(N2CCN(C(=O)CCCCCCCCCCNC(=O)[C@H](CCCCN)n3cc(CCCC(=O)O)nn3)CC2)nc(N2CCN(C(=O)CCCCCCCCCCNC(=O)[C@H](CCCN=C(N)N)n3cc(C[C@@H](C)CC)nn3)CC2)n1,?,.,-14.7,-687.3,.,2.0,28.8
Cc1cc(OCc2cc(C(=O)NCc3cc(C(C)C)no3)no2)cc(C)c1Cl,0.0,0.649,-0.5,0.0,-8.4%,2.5,-4.7
Cn1nccc1C(=O)N1CCN(S(=O)(=O)c2ccc(Br)s2)CC1,-0.4,0.659,2.7,-1.7,.,4.2,-1.7
CC(NC(=O)c1ccc(F)cc1)c1nc2ccccc2n1Cc1ccccc1F (stereo not drawn),-0.2,0.768,-3.0,-10.9,3.4%,6.2,1.7
C/C(=N/NC(=O)c1ccc(-c2ccccc2)cc1)c1cc(O)cc(O)c1,-1.4,.,0.3,12.9,.,.,5.4
CC(=O)Oc1cccc(N2C(=O)C3CC=CCC3C2=O)c1 (stereo not drawn),0.1,0.692,-1.4,2.6,5.6%,1.6,3.5
CCNc1nc(C#N)nc2c1ncn2-c1cc(F)cc(F)c1,0.3,0.797,-1.9,13.1,.,3.4,34.3
CCN1CCN(c2ccc(Cl)cc2NC(=O)c2ccco2)CC1,.,0.678,.,-5.2,-8.1%,5.7,0.1
COc1ccc(OCc2nnc(SCC(=O)Nc3cccc(Cl)c3)o2)cc1,-0.6,0.701,3.6,-1.4,.,0.7,3.2
Cc1ccc(NC(=O)COC(=O)C2=NNC(=O)CC2)c(Br)c1,0.0,0.69,-3.9,-2.7,.,1.4,1.1
CCOC(=O)c1ccc(-n2c(N)c(C(=O)NCC3CCCO3)sc2=S)cc1 (stereo not drawn),0.4,0.694,-2.4,-1.6,-6.6%,8.4,2.5
O=C(OCc1ccccc1)/C(=C/c1ccccc1Cl)NC(=O)c1ccco1,-0.3,0.709,3.4,7.4,-6.9%,3.7,-2.4
CC(NC(=O)C(=O)N/N=C/c1ccccc1)c1ccccc1 (stereo not drawn),-0.3,.,-0.6,3.5,7.4%,.,4.5
OC(CNCCc1ccc(C(F)(F)F)cc1)COC(c1ccccc1)c1ccccc1 (stereo not drawn),1.6,0.574,-3.6,20.1,-4.8%,6.8,-0.1
CC(=O)N1CCc2cc(S(=O)(=O)NC(C(=O)Nc3ccc4c(c3)OCCO4)C(C)C)ccc21 (stereo not drawn),0.4,0.665,2.6,2.0,?,3.9,3.9
Cc1ccc(CN(C)C(=O)c2ccccc2NC(=O)c2ccccc2)o1,.,0.687,.,10.9,.,-0.1,-3.2
O=C1NC(=O)C(=O)N1,0.1,0.69,-1.4,-2.5,.,2.5,2.9
CC(C)NC(=O)NC(=O)CN1C(=O)NC2(CCc3ccccc3C2)C1=O (stereo not drawn),0.1,0.677,2.1,-5.6,-5.1%,0.1,-0.8
CC(n1cnnn1)C12CC3CC(CC(C3)C1)C2 (stereo not drawn),0.7,0.708,-3.0,-1.8,3.8%,0.3,1.2
Nc1nnc(SCCOc2cccc(Br)c2)s1,-5.5,0.62,-0.9,0.1,-0.7%,-0.8,2.0
COc1ccc(S(=O)(=O)N2CCN(C)CC2)cc1C(=O)N1CCCCC1,-0.2,0.705,1.0,-0.3,.,3.9,-3.4
O=C(NCCN1CCOCC1)c1csc2c1CCCCC2,0.3,0.705,-0.2,-0.6,-4.2%,-0.3,0.8
O=C(CCCNS(=O)(=O)c1ccc(Cl)c(Cl)c1)NCCc1ccccn1,0.8,0.721,3.3,-3.8,-4.7%,2.2,0.8
NNC(=O)[C@@H]1C[C@@H]1c1ccccc1,0.8,0.676,-1.9,-5.4,4.6%,-0.7,-2.2
COc1ccc(C(=S)N2CCN(c3ccccc3C)CC2)cc1,0.9,0.665,-1.1,-2.5,.,1.4,3.5
O=C1COc2ccc(S(=O)(=O)N3CCC(C(=O)NCc4ccccc4)CC3)cc2N1,-1.2,0.695,-3.3,0.1,27.0%,0.6,0.9
CCOc1ccc(N(C(=O)c2snc(C(N)=O)c2N)C(C(=O)NC2CCCC2)C(C)C)cc1 (stereo not drawn),-0.2,0.658,-1.8,-8.5,-9.1%,-4.1,2.1
Nc1cc(Cl)nc(N/N=C/c2ccccc2[N+](=O)[O-])n1,-7.6,.,1.3,4.1,20.5%,.,2.6
CCCC(=O)NC(Nc1ccccc1F)C(Cl)(Cl)Cl (stereo not drawn),0.3,.,2.9,.,-7.6%,.,.
COc1ccc(-c2cc(=O)oc3cc(OCC(C)=O)ccc23)cc1,-0.1,0.668,8.2,-28.8,1.0%,-6.3,1.9
CC(OC(=O)c1cccc(Cl)c1)C(=O)NC1CCCCC1C (stereo not drawn),-0.7,0.73,5.1,-6.0,.,5.1,6.4
O=C(c1ccc(Cl)cc1)N1CCCC(C(=O)N2CCCCC2)C1 (stereo not drawn),1.1,0.692,1.0,4.0,.,4.6,0.6
CC1Oc2ccccc2OC1(O)c1ccc2ccccc2n1 (stereo not drawn),-0.4,0.708,-1.8,4.1,-1.2%,2.9,-12.8
CCOC(=O)CSc1cc(=O)n(C)c2cc(Cl)ccc12,-0.3,.,-2.4,-0.1,3.6%,.,6.2
CCN1CCN(c2cc(SC(C)C)nc(-c3ccc(OC)cc3)n2)CC1,.,0.709,.,-6.9,12.2%,-2.7,-0.4
COC(=O)c1nc2n(n1)C(c1ccc(OC)c(OC)c1)C(C(=O)OC1CCCCC1)=C(C)N2 (stereo not drawn),0.1,0.728,4.9,1.1,3.6%,1.6,1.9
CCCN(c1ccccc1F)S(=O)(=O)c1cc(-c2cc(C)no2)ccc1OC,?,0.716,-2.8,28.4,.,1.9,-4.2
Cc1ccc2oc3nc(C)c(C(=O)Nc4cccc(C(F)(F)F)c4)cc3c(=O)c2c1,-0.3,0.684,1.2,9.3,-45.8%,-1.8,0.3
Nc1ccccc1-c1ccn[nH]1,.,0.688,.,5.7,-5.0%,-2.3,2.1
C/C(=N/NC(=O)CN1CCN(Cc2ccccc2Cl)CC1)c1ccncc1,-0.3,.,-2.8,-6.2,.,.,-2.6
COc1ccccc1C1=NOC(C)(c2sc(-c3ccccc3)nc2C)C1 (stereo not drawn),-0.4,0.714,-1.5,-9.4,.,19.1,-2.8
CC(=O)c1c(C)[nH]c(C(=O)OCC(=O)NCCc2ccc(F)cc2)c1C,0.3,0.728,2.2,-3.4,-5.1%,6.0,0.9
c1ccc2c(c1)CCN(c1nc(CN3CCOCC3)nc3sc4c(c13)CCCC4)C2,0.2,0.657,1.9,-6.8,3.8%,-9.0,1.9
COc1cccc(C(=O)C[n+]2ccccc2/C=N/O)c1,-0.6,.,5.1,-0.3,19.2%,.,-5.8
CCN1CCN(S(=O)(=O)c2ccc(Cl)c(C(=O)Nc3nnc(CC(C)C)s3)c2)CC1,1.1,0.733,-1.7,-3.6,2.2%,0.5,1.1
O=C(O)c1cc(-c2ccc(O)cc2)nc2ccccc12,?,0.661,2.9,.,-7.4%,1.1,.
CCOC(=O)/C(C(=O)Nc1ccc(Br)cc1)=C1/NC(C)(C)Cc2ccccc21,0.5,0.673,-2.5,1.0,3.9%,6.3,-3.3
